Sa growth 42C: S. aureus growth inhibition; AID 720641; S. aureus RN4220 growth, OD600, 20 h, 42 °C; stronger effect = lower value; relative growth, % (no concentration beside the values); hit rate 0.53% among 170,000;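 active means growth at 42 °C up to 50% and 20 or more points under that at 30 °C, or under 10% at both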;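 further: 300 nL library stock went into each well; scaled to the means of positive and negative controls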
GIV-Gai inh: inhibitors of GIV GBA-motif binding to rat Galpha-i3; Galpha-i3/FITC-GIV peptide fluorescence polarization, 90 min; stronger effect = lower value; scaled: aluminum fluoride 0%, vehicle 100%; hit rate 0.42% among 210,000; P08753; AID 1224905; percent of control (FP), % (no concentration beside the values);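 active means replicate mean at 85% of control or lower, very high polarization wells dropped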;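 further: wells of about 15 µL received 100 nL stock; the first replicate is given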
Target sequence (P08753 whole entry, looked up): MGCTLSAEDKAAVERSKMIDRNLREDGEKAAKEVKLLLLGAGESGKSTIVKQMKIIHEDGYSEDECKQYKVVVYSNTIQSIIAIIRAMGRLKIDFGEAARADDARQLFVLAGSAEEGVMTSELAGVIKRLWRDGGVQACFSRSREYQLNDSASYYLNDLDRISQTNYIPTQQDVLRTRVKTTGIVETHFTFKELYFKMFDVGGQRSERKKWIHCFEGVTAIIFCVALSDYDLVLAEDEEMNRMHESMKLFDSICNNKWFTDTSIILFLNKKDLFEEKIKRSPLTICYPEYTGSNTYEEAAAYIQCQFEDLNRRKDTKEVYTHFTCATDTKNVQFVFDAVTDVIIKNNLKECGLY
HCMV UL50-53 inh: inhibitors of HCMV UL50-UL53 nuclear egress complex interaction; HTRF UL50-UL53 interaction, normalized percent inhibition; inhibition, % (concentration not given with the values); hit rate 0.15% among 190,000;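 active means both replicates at 50% or more, plus weaker picks with an unusually low signal ratio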;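 further: stock transfer was 100 nL into about 20 µL; 0% = negative control wells and 100% = wells with untagged competitor protein; inactives centre near -12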
Sa growth 42C second temp: recorded beside Sa growth 42C, whose call it bears; relative growth, %; measured here: growth at 30 °C;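 optical density after 20 h as mean of two plates; 100% = untreated growth and lower means inhibition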
An asterisk follows results filed as active; x = not tested or not shown; & = joins results of further samples.

The first 7 compounds as a preview:
SMILES	Sa growth 42C	Sa growth 42C second temp	GIV-Gai inh	HCMV UL50-53 inh
CCCCOc1ccc(Cn2c(=O)oc3ccccc32)cc1	101	88	102	3
Cc1nc(C)c(-c2cc(C)c3c(C)nc(C)nc3n2)c(N)n1	115	84	100	-12
Cc1ccc(-n2ncc3c(Nc4ccccc4)ncnc32)cc1	100	97	102	-12
FC(F)(F)c1nnc2n1N=C(c1ccc(Cl)cc1Cl)CS2	84	94	x	-14
CCC(C(=O)N(C)Cc1ccccc1)N1CCN(Cc2ccc(F)cc2)C(=O)C1=O (stereo unspecified)	x	x	104	0
COc1ccc(CCNc2ccc(C)cc2)cc1	96	90	x	-10
Nc1ccc(O)c(-c2nc3ccccc3o2)c1	108	102	106	5

Results (from the top)
SMILES	Sa growth 42C	Sa growth 42C second temp	GIV-Gai inh	HCMV UL50-53 inh
CCCCOc1ccc(Cn2c(=O)oc3ccccc32)cc1	101	88	102	3
Cc1nc(C)c(-c2cc(C)c3c(C)nc(C)nc3n2)c(N)n1	115	84	100	-12
Cc1ccc(-n2ncc3c(Nc4ccccc4)ncnc32)cc1	100	97	102	-12
FC(F)(F)c1nnc2n1N=C(c1ccc(Cl)cc1Cl)CS2	84	94	x	-14
CCC(C(=O)N(C)Cc1ccccc1)N1CCN(Cc2ccc(F)cc2)C(=O)C1=O (stereo unspecified)	x	x	104	0
COc1ccc(CCNc2ccc(C)cc2)cc1	96	90	x	-10
Nc1ccc(O)c(-c2nc3ccccc3o2)c1	108	102	106	5
Cc1cc2c(=O)[nH]c(Cc3ccccc3)nc2s1	106	84	x	-5
COc1ccccc1/C=C/c1nc(C#N)c(N2CCN(C)CC2)o1	108	91	102	-67
Cc1cccc(NC(=O)[C@@H]2CCCN2C(=O)OC(C)(C)C)c1	100	98	x	-3
Cc1ccc2c(c1C)NC(=O)CC(c1ccccc1O)=N2	82	88	102	-25
COc1ccc(C2=C(C(C)=O)Sc3nnc(-c4ccccc4)n3N2C(C)=O)cc1	95	90	98	x
CN(C)C(=S)SCC(=O)Nc1ccc(F)cc1	92	90	x	1
O=C(Cn1c(-c2ccccn2)nc2ccccc21)NCCCn1ccnc1	93	83	103	x
CCCCSc1nnc2c(=O)[nH]c(=O)[nH]c2n1	95	74	100	-114
O=C(NCC1CCCCC1)c1ccc(-n2cnnn2)cc1	91	100	x	-3
CN(Cc1nc(-c2ccc(C(F)(F)F)cc2)no1)C1CS(=O)(=O)CC1O (stereo unspecified)	99	78	104	4
COc1cccc(-n2c(=O)[nH]cc(C(=O)Nc3ccc(S(N)(=O)=O)cc3)c2=O)c1	x	x	101	0
CC1CN(Cn2nc(-c3ccc(Br)o3)n(Cc3ccccc3)c2=S)CC(C)O1 (stereo unspecified)	88	89	x	-40
Cc1ccnc(NS(=O)(=O)c2ccc(NC(=O)c3ccc(S(=O)(=O)N4CCCCC4C)cc3)cc2)n1 (stereo unspecified)	83	86	99	4
CC(=O)Oc1cccc2c1C(=O)C=CC2=O	2.5*	1.6*	78*	47
COc1ccc(NC(=O)C2(c3cccs3)CCOCC2)cc1Cl	129	97	100	x
Cc1cccc(NC(=O)Nc2c(O)c3ccccc3oc2=O)c1C	82	89	102	-15
Cc1cccc(NC(=O)CSc2nc3c([nH]c4ccccc43)c(=O)n2C)c1	98	90	100	x
CCCCn1c(C2CC(=O)N(c3ccccc3Cl)C2)nc2ccccc21 (stereo unspecified)	119	95	105	x
Cc1ccc(-c2csc(Nc3ccc(C(=O)O)cc3)n2)c(C)c1	40	36	x	14
O=C(NC1CCN(C(=O)C2CCC2)CC1)c1ccccc1	112	101	106	-3
O=c1cc(CNCc2ccccc2)nc2nc(NCc3ccccc3)[nH]n12	x	x	101	-16
CCc1cccc(C)c1NC(=O)CSc1n[nH]c(-c2ccccc2)n1	82	86	104	x
CCCNC(=O)C(C)n1c2ccccc2c2cnn(C)c(=O)c21 (stereo unspecified)	98	85	98	x
O=C(CCNC(=O)c1ccco1)NC1CCCc2ccccc21 (stereo unspecified)	85	104	x	-10
CC(O)Cc1nsc(NC(=O)c2cccc(F)c2)n1 (stereo unspecified)	x	x	102	-20
Cc1cccc(-n2ncc(C(=O)N3CCN(c4ccc(C)cc4C)CC3)c2C2CCN(C(=O)OC(C)(C)C)CC2)c1	118	95	107	x
Cc1ccc(NC(=O)c2ccc3nnc(SCC(=O)NCc4ccc(Cl)cc4)n3c2)cc1	x	x	99	-50
CCn1c(C(=O)N2CCC(C(=O)NC(C)c3ccccc3)CC2)cc2sccc21 (stereo unspecified)	113	96	106	-9
COc1ccc(-c2cc(OC(=O)c3ccc(C(C)(C)C)cc3)c3c(C)oc(C)c3c(=O)c2)cc1	x	x	114	-36
CCn1cc(C(=O)OCc2cccc(C)c2)c(=O)c2ccc(C)nc21	x	x	101	-13
COc1ccc(-c2ccc(SCc3nc(-c4ccccc4Br)no3)nn2)cc1OC	x	x	101	24
O=C1CSc2ccc(C(=O)NC3CCCCCC3)cc2N1	124	86	104	x
N#C/C(=C\c1ccccc1OC(F)(F)F)S(=O)(=O)c1ccccc1	111	87	105	-5
O=c1c2c(-c3cccs3)csc2[nH]c(=S)n1-c1ccccc1	108&45	76&54	101	-52
CCNc1c(NC(=O)c2cc(OC)c(OC)c(OC)c2)c(=O)oc2ccccc12	92	84	101	-20
CCOc1ccccc1C(=O)Nc1ccc(S(=O)(=O)Nc2ncccn2)cc1	94	86	107	-1
CCOC(=O)c1sc(/S(C)=N/C(=O)Nc2ccccc2Cl)c2c1CCC=C2 (stereo unspecified)	92	87	104	-46
Cc1ccc(-c2ccc(NC(=O)c3ncoc3-c3ccc(F)cc3)cc2)o1	86	76	98	-4
COc1ccc(CC(=O)OC2CCCN(C)C2)cc1 (stereo unspecified)	111	105	100	-16
COC(=O)c1sc2cccc(Cl)c2c1NC(=O)CS(=O)(=O)c1ccc(Cl)cc1	x	x	101	-16
Cc1ccc(-n2ncc3c(NCCc4ccc(S(N)(=O)=O)cc4)ncnc32)c(C)c1	94	78	105	-19
COc1ccc(OC)c(C2C3=C(CC(C)(C)CC3=O)Nc3onc(C)c32)c1 (stereo unspecified)	x	x	102	-5
COc1ccc(-c2noc(C3CCN(C(=O)OC(C)(C)C)CC3)c2C(=O)O)cc1	92	88	106	-12
Cc1csc(SCC(=O)Nc2ccc(S(N)(=O)=O)cc2)n1	90	93	x	-6
C=CCNc1oc(-c2cccs2)nc1C#N	123	95	103	-29
Cn1cc(Br)c(NC(=O)c2ccc(Cl)c(Cl)c2)n1	104	92	97	-2
O=C(c1ccc2c(c1)N(Cc1ccccc1)C(=O)c1ccccc1S2=O)N1CCC(Cc2ccccc2)CC1 (stereo unspecified)	120	99	100	6
Cc1nnsc1C(=O)Nc1ccc(-n2nc(C(F)(F)F)cc2C(F)(F)F)cc1	109	98	103	3&-10&-10
Cc1ccccc1-n1cc(-c2ccccc2)nc1SCC(=O)Nc1ccc(F)cc1	83	83	103	x
OC(Cn1ccnc1)n1c(-c2ccccc2)nc(-c2ccccc2)c1-c1ccccc1 (stereo unspecified)	85	97	x	-5
O=C1c2ccccc2S(=O)(=O)N1CC(O)COc1ccccc1 (stereo unspecified)	93	79	102	-13
Cc1ccc(C(=O)COC(=O)CCc2nc3ccccc3[nH]c2=O)cc1C	98	79	104	11
O=C(O)c1cccc(Cn2cc(Cl)cn2)c1	118	86	x	-23
The listing continues:
SMILES	Sa growth 42C	Sa growth 42C second temp	GIV-Gai inh	HCMV UL50-53 inh
Cc1csc2nc(CSc3nc4ccc([N+](=O)[O-])cc4[nH]3)c(Br)n12	x	x	105	-9
Cc1ccc(NC(=O)CCS(=O)(=O)c2ccc(Br)s2)c(Br)c1	107	92	111	-8
CC(C(=O)N1CCc2ccccc21)n1cccc1 (stereo unspecified)	101	85	102	5
Cc1ccc(N2CC(N)=C(n3cc[n+](C)c3)C2=O)cc1	92	94	x	-20
O=c1cc(CO)oc(C(=Nc2ccc(Cl)cc2)c2ccncc2)c1O	96	84	x	-26
Cc1cc(N2CCN(C)CC2)nc2ccc(NC(=S)N3CCC(C)CC3)cc12	77	93	108	-2
Cc1ccc(N=Cc2ccc[nH]2)c(Br)c1	95	101	x	4
Cc1ccc(C)c(N2CCN(S(=O)(=O)c3ccc4c(c3)CCCN4C(=O)C3CCC3)CC2)c1	91	90	109	x
CC(C)C(=O)Nc1c(O)c2ccccc2[nH]c1=O	105	98	x	5
CC1CCC(NC(=O)C2c3cccn3CC(=O)N2c2ccc(Cl)cc2)CC1 (stereo unspecified)	x	x	103	-41
O=C(COc1ccc(Br)cc1)NCC(c1cccs1)N1CCCC1 (stereo unspecified)	x	x	102	-25
CCC(C)N1C(=O)CCC1C(=O)O (stereo unspecified)	95	91	106	x
CCOc1cccc2sc(N(Cc3cccnc3)C(=O)C3CCCCC3)nc12	78	23	103	x
COc1ccc(-c2nc3c(c(SCc4cc(C)ccc4C)n2)Cc2c(CO)cnc(C)c2O3)cc1	98	83	101	x
c1ccc(-n2c(SCc3cn4ccsc4n3)nc3ccccc32)cc1	125	90	x	-24
O=C(CCc1ccccc1)N1CCC(N2CCN(Cc3ccccc3)C(=O)C2=O)CC1	x	x	97	-21
CN(c1ccc(Cl)cc1)S(=O)(=O)c1nnc(NC(=O)C2CCCCC2)s1	116	93	107	7
Nc1nncn1C(=O)c1ccc2c(c1)OCO2	105	78	97	-9
COC(=O)c1[nH]n(-c2c(C)cccc2Cl)c(=O)c1N=O	107	88	100	-75
CNC(=O)c1cc2c(n(-c3ccccc3)c1=O)CCCC2=O	108	93	101	-6
COc1ccc2nc(NC(=O)CSc3nc4ccccc4[nH]3)sc2c1	x	x	104	23
Cc1csc2sc(C(=O)Oc3ccc(Cl)cc3)c(C)c12	92	84	103	5
CN1C(=O)CCc2cc(NC(=O)c3ccccc3)ccc21	x	x	102	-25
COc1cccc(N2CCN(C(=O)Cc3n[nH]c(=O)c4ccccc34)CC2)c1	100	91	x	-26
Cc1cc(C(=O)Nc2ccc(Cl)cc2)c(C(F)(F)F)o1	114	91	99	-4
Cn1nc(C(F)(F)F)c2cc(C(=O)O)sc21	98	92	100	-20
CC(C)CCn1c(=O)c2ccccc2n2c(SCc3ccccc3)nnc12	x	x	102	6
O=C(Nc1ccccc1Cl)N1CCC(CN2CCCCC2)CC1	103	91	103	x
Cc1ccc(Cl)cc1NC(=O)C1CCN(c2nc3ccccc3n3cccc23)CC1	84	89	99	-20
O=C(CC1CCCCC1)Nc1ccncc1	87	80	x	-7
COC(=O)c1c(NC(=O)CCCOc2cccc(C)c2)sc2c1CCC(C)C2 (stereo unspecified)	100	97	104	21
Cc1cc(C)c2nc(N(Cc3cccnc3)C(=O)c3ccc(S(=O)(=O)N(C)C)cc3)sc2c1	113	85	101	x
CC1CCCN(S(=O)(=O)c2ccc(-c3nc(C#N)c(N(C)C)o3)cc2)C1 (stereo unspecified)	x	x	101	-28
CCCN(C(=O)Cc1noc2ccc(C)cc12)c1ccc(Cl)c(Cl)c1	84	80	100	-16
O=C(Nc1ccccc1)Nc1cccc(-c2noc(-c3ccc4c(c3)OCO4)n2)c1	x	x	101	-17
CC(=O)c1ccc(NC(=O)Cn2cc(S(=O)(=O)Cc3cccc(Cl)c3)c3ccccc32)cc1	128	80	113	x
C=C1SC(Nc2cccc(Cl)c2)=NC1(C)C	108	98	106	-18
COc1cc2c(cc1OC)C1=C(C#N)CN(c3ccc(C)c(C)c3)CN1CC2	107	54	104	x
Cc1onc(-c2ccccc2Cl)c1C(=O)N(CC(C)C)CC(C)C	104	94	104	-11
C=CCn1c(-c2cc(OC)c(OC)c(OC)c2)nc2ccccc21	97	83	101	x
O=C(Nc1ccc(Cl)cc1)c1cnn(-c2ccccc2)c1	x	x	107	-15
COc1ccccc1NC(=S)N(Cc1ccccc1)Cc1ccc(C)o1	91	87	104	-24
CC(C)CCN(C(C)c1cccs1)S(=O)(=O)c1csc(C(N)=O)c1 (stereo unspecified)	102	86	102	-35
CCOCCOC(=O)COc1ccc2c(=O)c(Oc3ccccc3Br)coc2c1	x	x	109	7
Cc1nn(C)c(C)c1S(=O)(=O)NC1CCCC1	95	85	x	-3
CCOc1ccc(-c2nnc(SCC(=O)Nc3cccc(Cl)c3C)o2)cc1	95	85	98	-7
O=c1[nH]c(CN2CCCC2c2ccc3c(c2)OCCO3)nc2cc(Cl)ccc12 (stereo unspecified)	95	94	x	-3
O=C(CC(C(=O)c1cccnc1)c1ccc2c(c1)OCO2)c1ccc(Cl)cc1 (stereo unspecified)	132	90	99	-10
COc1ccc(OC)c(CNc2ncnc3onc(C)c23)c1	112	106	110	x

Compound profiles, as listed above. Order of values: Sa growth 42C, Sa growth 42C second temp, GIV-Gai inh, HCMV UL50-53 inh
Profile of CCOCCOC(=O)COc1ccc2c(=O)c(Oc3ccccc3Br)coc2c1 → x, x, 109, 7
Profile of CCOc1ccc(-c2nnc(SCC(=O)Nc3cccc(Cl)c3C)o2)cc1 → 95, 85, 98, -7
Profile of COc1ccc(OC)c(CNc2ncnc3onc(C)c23)c1 → 112, 106, 110, x
